# Source: PubChem
# Arbovirus inh: antivirals against arbovirus infection, primary screen, cell-based, full library, 10K replicate subset; arbovirus infection cell-based antiviral screen; 200,000 tested, 0.37% active; AID 1251, 2008; inhibition, % at 10 µM;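 active means inhibition from about 30%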;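 further: bluetongue infection of BSR cells; cell survival read as ATP light after 72 h; 0% = infected wells without compound and 100% = uninfected wells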
# YopH inh: YopH tyrosine phosphatase inhibitors, primary screen, biochemical, fluorescence Ex485/Em525; inhibition, %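 (about 10 µM by stock and volumes)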; YopH tyrosine phosphatase [Yersinia enterocolitica]; 140,000 tested, 0.16% active;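 active means inhibition of 50% or more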;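 further: controls were vehicle for no effect and minimum signal wells for full effect; inactives centre near -20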
# RecA splice inh: Mtb RecA intein splicing inhibitors, primary screen, biochemical, fluorescence, HTS | Protein RecA (Mycobacterium tuberculosis (strain ATCC 25618 / H37Rv)), P9WHJ3 | cell-free RecA intein splicing | inhibition, %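 (about 9 µM by stock and volumes)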 | 290,000 tested, 0.75% active; in the data active means inhibition above about 30%;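 further: 0% = vehicle wells and 100% = reference inhibitor control wells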
# Target sequence (P9WHJ3 whole entry, looked up, canonical isoform): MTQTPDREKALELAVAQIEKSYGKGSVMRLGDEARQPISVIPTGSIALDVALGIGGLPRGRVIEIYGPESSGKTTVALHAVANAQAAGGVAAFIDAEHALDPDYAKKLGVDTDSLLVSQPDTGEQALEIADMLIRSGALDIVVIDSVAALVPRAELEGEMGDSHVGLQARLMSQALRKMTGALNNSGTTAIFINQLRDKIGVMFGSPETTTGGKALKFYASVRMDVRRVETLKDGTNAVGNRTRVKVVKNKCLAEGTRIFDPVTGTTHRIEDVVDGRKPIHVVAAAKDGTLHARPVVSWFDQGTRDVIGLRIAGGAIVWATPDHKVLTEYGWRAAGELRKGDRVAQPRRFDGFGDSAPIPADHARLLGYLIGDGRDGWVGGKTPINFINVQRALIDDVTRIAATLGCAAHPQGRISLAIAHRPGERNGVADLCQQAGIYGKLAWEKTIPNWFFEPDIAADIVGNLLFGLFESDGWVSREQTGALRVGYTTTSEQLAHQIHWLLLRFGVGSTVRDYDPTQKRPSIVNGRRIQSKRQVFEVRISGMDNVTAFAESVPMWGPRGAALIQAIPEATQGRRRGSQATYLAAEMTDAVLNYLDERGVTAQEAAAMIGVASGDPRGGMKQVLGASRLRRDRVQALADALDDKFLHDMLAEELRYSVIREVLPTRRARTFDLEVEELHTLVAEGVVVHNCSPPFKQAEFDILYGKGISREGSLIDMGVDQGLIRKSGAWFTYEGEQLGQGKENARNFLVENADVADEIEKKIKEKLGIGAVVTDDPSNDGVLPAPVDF
# Mtb bLac sens: beta-lactam sensitization of Mtb H37Rv, H37Rv | M. tuberculosis H37Rv growth with meropenem, percent inhibition; hits of this screen are not shown here | inhibition, % at 25 µM | 330,000 tested, 0.27% active | AID 434955, 2010;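 active means about 74% or more and at least 40 points above the plate without the antibiotic, then above 30% in a dose series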;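 further: growth measured after seven days incubation then overnight dye step; 0% = bacteria only wells and 100% = bacteria with antibiotic; twin plates without the antibiotic show which effects depend on it; some results filed as inactive read as strong as hits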
# Mtb growth: M. tuberculosis H37Rv growth inhibitors, H37Rv strain (AID 1626). M. tuberculosis H37Rv growth inhibition; higher % means a stronger effect. inhibition, % at 10 µM; hits with a dose series show IC50 in µM. 220,000 tested, 0.95% active;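 active means confirmed in a dose series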;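 further: bacteria incubated seven days before Alamar blue readout; 0% = bacteria only wells and 100% = bacteria with antibiotic wells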
# Arbovirus inh repeat: recorded beside Arbovirus inh, whose call it bears; inhibition, %; measured here: 10K subset replicate screen; many hits read low in the repeat;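 first of two repeat runs on a subset; 0% = infected and 100% = uninfected wells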
# * hit, by the source's call; / = no result given.
SMILES,Arbovirus inh,YopH inh,RecA splice inh,Mtb bLac sens,Mtb growth,others
Cc1cc(=O)oc2cc(OCc3ccc(C(=O)OCC(=O)NC4CCS(=O)(=O)C4)cc3)ccc12 (configuration not stated),/,/,0.2,2,-3%,
CCN1CCN(c2ncnc3c2nnn3Cc2ccccc2)CC1,-6,-49,-0.4,-1,-10%,
Cc1ccc(S(=O)(=O)N(C)C)cc1NS(=O)(=O)c1ccc(Cl)s1,5,-37,-1.1,/,-6%,
O=C(/C(C=Nc1ccc(F)cc1)=C(/O)c1ccco1)C(F)(F)F,-10,-25,-0.9,-4,-2%,
Cc1ccc(-c2csc(NC(=O)c3ccc([N+](=O)[O-])o3)n2)cc1,/,/,0.2,100,/,
COc1ccc(C(=O)NCc2nnc(SCC(=O)Nc3cc(C)cc(C)c3)o2)cc1OC,-2,-10,2.1,0,-4%,
CCOc1ccc(/C=C2/Sc3ccc(C(=O)N4CCN(C(=O)c5ccco5)CC4)cc3N(C)C2=O)cc1OC,-4,/,-0.4,95,-2%,
O=C(CN1CCOCC1)Nc1ccc(Br)cc1,/,/,0.8,7,/,
CCCCCC/C(=N\NS(C)(=O)=O)c1ccccc1,10,7,2.7,-7,-7%,
COc1ccc(C2(C)NC(=O)N(CC(=O)Nc3ccc(Br)c(C)c3)C2=O)cc1OC (configuration not stated),/,/,0.8,-3,/,
CCOc1ccc(NC(=O)CN(C)C(=O)C2(c3ccccc3)CC2)cc1OCC,/,/,-1.0,-1,/,
COC(=O)c1ccccc1NC(=S)NC(=O)C1CC1,8,-22,0.7,8,4%,
COc1ccc(S(=O)(=O)Nc2nc3ccccc3nc2NCC2CCCO2)cc1 (configuration not stated),/,/,-1.0,3,-12%,
O=S1(=O)c2cccc3cccc(c23)N1Cc1nnc(-c2ccccc2Br)o1,19,-40,2.4,-3,-1%,
Cc1oc(-c2cccs2)nc1CN1CCN(CC(C)C)C(CCO)C1 (configuration not stated),-5,/,-7.0,4,3%,
CN(CC(=O)Nc1cccc(F)c1)CC(=O)Nc1ccccc1Oc1ccccc1,/,/,6.7,1,/,
COc1ccc(-n2nc(C(=O)NCC(=O)N3CCC4(CC3)OCCO4)c3ccccc3c2=O)cc1OC,/,/,-0.2,-5,/,
O=C(NCc1ccccn1)c1ccc2ccccc2n1,-1,-15,-6.4,0,-4%,Arbovirus inh repeat=3
NC(=O)c1c(NC(=O)Cn2cc([N+](=O)[O-])cn2)sc2c1CCCC2,5,/,1.8,-6,-1%,
CC(=O)Nc1ccc(NC(=O)COC(=O)Cc2cccs2)cc1,1,-30,-1.9,1,0%,
CN1CCN(c2ccc(C=O)cc2)CC1,-1,-19,0.5,-9,3%,
COC(=O)CC[C@@H](C(=O)O)N1C(=O)c2ccccc2C1=O,2,-22,-1.4,-7,3%,
O=C(c1ccc(Br)cc1)N1CCC(C(=O)N2CCN(Cc3ccccc3)CC2)CC1,/,/,-4.1,3,/,
Brc1ccc2c(c1)CN1CCCC1=N2,/,/,1.4,5,/,
Cc1nnc(N(C(=O)c2cnccn2)c2ccccc2)s1,-5,-8,/,-12,1%,
Cc1noc(C(=O)Nc2c(C)n(C)n(-c3ccccc3)c2=O)c1Cl,5,-46,0.1,-1,-2%,Arbovirus inh repeat=-3
Cc1ccccc1C1c2[nH]c3ccccc3c2CCN1CCCn1cccn1 (configuration not stated),15,/,-11,-11,4%,
CCN(CC)CCCN=Cc1c(O)n(Cc2ccccc2)c(=O)c2ccccc12,-11,-18,3.0,-6,-3%,
Cc1ccnc(NS(=O)(=O)c2ccc(NS(=O)(=O)c3ccc(Br)cc3)cc2)n1,/,/,-6.2,8,/,
CC(C)C[C@H](NC(=O)[C@H](Cc1ccccc1)n1c(=O)[nH]c2ccccc2c1=O)C(=O)N1CCC(C(=O)O)CC1,/,/,-3.5,-5,/,
O=C(C1=C[C@@H](c2coc3ccccc3c2=O)C[C@@H](OCCCCO)O1)N1CCN(Cc2ccccc2)CC1,4,/,1.8,-1,-5%,
COC(=O)Cn1cc(C(=O)C(F)(F)F)c2ccccc21,2,/,2.1,-21,-3%,
CCOC(=O)c1c(NC(=O)COc2cccc3c2CCN(Cc2ccc(F)cc2)C3=O)sc2c1CCC2,-14,-24,0.7,-1,-3%,
Cc1ccc(-c2onc3ccc(Cl)cc23)cc1,-9,-8,9.3,1,-10%,
COc1ccc(CN(C)C(=O)c2cc(-c3ccc(OC)c(OC)c3)nc3ccccc23)c(OC)c1,/,/,8.0,0,/,
COC(=O)C(CCSC)NC(=O)CNC(=O)C1CCCCC1 (configuration not stated),-3,-20,0.0,-9,-1%,
CN(C)S(=O)(=O)c1cccc(NC(=S)NCc2ccc3c(c2)OCO3)c1,5,/,0.1,-8,-1%,
C/C(N)=C(/C#N)C(=O)CSc1nnc(SCc2ccc(Cl)cc2)s1,4,3,/,-1,17%,
COCCCN1C(=O)c2ccc(C(=O)OCC(=O)NCCc3ccccc3)cc2C1=O,7,/,-8.5,-4,-1%,
Cc1cccc(NC(=O)c2ccc([N+](=O)[O-])cc2Cl)n1,-13,-20,1.1,4,2%,
COc1ccc(NS(=O)(=O)c2ccc(Oc3cccc(C(=O)O)c3)cc2)cc1,9,/,2.2,-4,-3%,
COc1ccccc1N1CCN(S(=O)(=O)CCNC(=O)c2ccc(OC(C)C)cc2)CC1,/,/,1.4,2,/,
CC1=NN(C)C(=O)C1Cc1c(F)cccc1Cl (configuration not stated),/,/,80*,0,/,
Cc1c(N=Cc2c(O)n(CCc3ccc(F)cc3)c(=O)[nH]c2=O)c(=O)n(-c2ccccc2)n1C,3,-13,-3.1,0,12%,
CC(=O)Oc1ccc2occ(-c3ccccc3)c2c1,/,/,1.4,79,/,
c1ccc(-c2nc(NC3CCCC3)c3ccccc3n2)cc1,/,/,-2.2,2,/,
COC(=O)c1ccccc1NC(=S)N(C)C,/,/,-0.4,-5,-1%,
Cc1[nH]nc2c1C1(C(=O)N(Cc3ccc(Cl)cc3)c3ccccc31)C(C#N)=C(N)O2 (configuration not stated),12,17,21,45,5%,
O=C(NC1CCCCC1)N1CCCC(c2nc(-c3cccs3)no2)C1 (configuration not stated),4,-2,1.9,-7,7%,
CCN(CC)S(=O)(=O)c1ccc(N2CCOCC2)c(NC(=O)C2CCCO2)c1 (configuration not stated),/,/,-3.1,0,-3%,
# The listing continues:
SMILES,Arbovirus inh,YopH inh,RecA splice inh,Mtb bLac sens,Mtb growth,others
CCCn1c(=O)c(C(=O)NNC(=O)Cc2ccccc2)c(O)c2ccccc21,/,/,0.9,4,/,
CCn1nc(C)c(/C=N/NC(=O)Cn2nc(C)cc2C)c1C,3,-25,1.6,2,-9%,
C/C(CC(=O)Nc1cc(Cl)ccc1Cl)=N\NC(=O)c1ccco1,1,-15,2.7,94,3%,
COc1ccc(C(=O)NC(CCSC)C(=O)N2CCCCCC2)cc1 (configuration not stated),/,/,0.8,-4,/,
CCOc1ccc2oc(C(=O)O)c(C)c2c1,/,/,-3.3,-3,2%,
Cc1c(Cl)cnc(NC(=O)COC(=O)c2ccc3c(c2)OCO3)c1Cl,5,-12,1.5,-3,10%,
COc1ccc(-c2csc(Nc3ccc(C)cn3)n2)cc1OC,53*,/,0.2,/,13%,
COCCNCCOCCOc1ccc(Cl)c(C)c1,-4,-6,-2.4,2,-7%,
O=C(NCc1ccccn1)[C@H]1C[C@@H]1[C@H](NP(=O)(c1ccccc1)c1ccccc1)c1ccccc1,3,-29,-1.8,-9,-14%,
COc1cc(/C=C/C(=O)N2C(=O)c3cccc(N)c3C2=O)cc(OC)c1OC,-8,-40,-69,6,-6%,

# Compounds shown so far that have a cyano group, in the order listed:
SMILES,Arbovirus inh,YopH inh,RecA splice inh,Mtb bLac sens,Mtb growth,others
C/C(N)=C(/C#N)C(=O)CSc1nnc(SCc2ccc(Cl)cc2)s1,4,3,/,-1,17%,
Cc1[nH]nc2c1C1(C(=O)N(Cc3ccc(Cl)cc3)c3ccccc31)C(C#N)=C(N)O2 (configuration not stated),12,17,21,45,5%,

# Carrying on:
SMILES,Arbovirus inh,YopH inh,RecA splice inh,Mtb bLac sens,Mtb growth,others
Cc1ccc(S(=O)(=O)Nc2ccc3c(c2)CCC3)cc1,-5,-27,3.9,9,13%,
Cc1cc(C)n(-c2nc3ccccc3nc2N2CCN(C(=O)c3ccc(Cl)cc3)CC2)n1,-2,11,-0.4,-6,10%,
Fc1cccc(/C=N/Nc2ncnc3nc[nH]c23)c1,-4,-26,-5.7,6,/,
Cc1cc(Cl)ccc1NC(=O)CCC(=O)N/N=C/c1cccnc1,/,/,-1.5,1,/,
Cc1c(C(=O)N2CCN(c3cccc(Cl)c3)CC2)cccc1[N+](=O)[O-],-5,/,3.4,-4,6%,
S=c1[nH]ccn1-c1c(Cl)cccc1Cl,/,/,-0.2,-2,-10%,
COCC(=O)N/N=C/c1c(C)[nH]n(-c2ccccc2)c1=O,-1,/,2.0,54,-1%,
Cc1ccc(S(=O)(=O)CCC(=O)Nc2ccccc2Br)cc1,/,/,0.8,-1,/,
COc1ccc2cc(C(=O)N3CCCCCC3)sc(=O)c2c1OC,-1,-48,-1.6,3,-2%,
C#CCOC(=O)C(NC(=O)c1ccccc1)=C(C)C,14,-20,-0.7,43,-4%,

# 7 entries from above, ordered by SMILES length, rising.
SMILES,Arbovirus inh,YopH inh,RecA splice inh,Mtb bLac sens,Mtb growth,others
S=c1[nH]ccn1-c1c(Cl)cccc1Cl,/,/,-0.2,-2,-10%,
Fc1cccc(/C=N/Nc2ncnc3nc[nH]c23)c1,-4,-26,-5.7,6,/,
Cc1ccc(S(=O)(=O)Nc2ccc3c(c2)CCC3)cc1,-5,-27,3.9,9,13%,
COc1ccc2cc(C(=O)N3CCCCCC3)sc(=O)c2c1OC,-1,-48,-1.6,3,-2%,
COCC(=O)N/N=C/c1c(C)[nH]n(-c2ccccc2)c1=O,-1,/,2.0,54,-1%,
Cc1c(C(=O)N2CCN(c3cccc(Cl)c3)CC2)cccc1[N+](=O)[O-],-5,/,3.4,-4,6%,
Cc1cc(C)n(-c2nc3ccccc3nc2N2CCN(C(=O)c3ccc(Cl)cc3)CC2)n1,-2,11,-0.4,-6,10%,

# The list continues:
SMILES,Arbovirus inh,YopH inh,RecA splice inh,Mtb bLac sens,Mtb growth,others
COc1ccc(-n2sc3c(c2=S)-c2cc(OC)ccc2NC3(C)C)cc1,-26,-5,-5.3,-1,16%,
COC(=O)c1cc([N+](=O)[O-])c(-n2cncn2)c([N+](=O)[O-])c1,9,/,3.4,/,-4%,
O=C(Nc1ccc(Br)cn1)c1ccc([N+](=O)[O-])cc1Cl,-5,/,-4.6,-3,7%,
O=C(CNc1cccc2ccccc12)N/N=C/C=C/c1ccco1,0,/,3.2,16,-3%,
S=c1[nH]ncn1NCc1ccc(Cl)cc1Cl,-1,/,/,-4,-7%,
COc1cccc(-n2nc3c(-n4ncc(C#N)c4N)nnc(C)c3c2C)c1,10,-14,0.3,-20,-13%,
Cc1cccc(C)c1NC(=O)COC(=O)CCc1ccc(S(=O)(=O)N2CCCCC2)cc1,-3,-12,0.2,1,-1%,
COC(=O)COc1ccc(S(=O)(=O)NCc2cccnc2)cc1C,2,-15,0.9,-4,-4%,
O=C(NC1(C(F)(F)F)C(=O)Nc2c1c(=O)[nH]c(=O)n2Cc1ccco1)C1CC1 (configuration not stated),-1,2,-0.8,-1,1%,
CC1Cc2cc(S(=O)(=O)NCCC(=O)N(C)Cc3ccccc3)ccc2N1C(=O)C1CC1 (configuration not stated),/,/,-2.0,-1,/,
Cc1ccc(NC(=O)NNC(=O)c2ccc3c(c2)NC(=O)C(C)(C)O3)cc1,/,/,1.1,-4,/,
Cc1csc(CNC(=O)C2CCC(=O)N(CCc3cccc(F)c3)C2)n1 (configuration not stated),/,/,-1.1,6,/,
COc1ccc(C2C(C(=O)N3CCOCC3)c3ccccc3C(=O)N2c2ccc(OC)cc2)cc1 (configuration not stated),-1,-34,-2.0,-9,-7%,
Cc1cc(NC(=O)CCS(=O)(=O)c2nc(-c3ccccc3)cc(C(F)(F)F)n2)no1,9,/,/,85,14%,
Cc1ccc(C(=O)O)cc1NS(=O)(=O)c1ccc2ccccc2c1,/,/,0.5,2,/,
COC(=O)/C(=N\OCc1ccc(C#N)cc1)c1c(C)nn(C)c1C,/,/,-1.0,-3,/,
CS(=O)(=O)Nc1ccc(C(=O)CC(=O)Nc2ccc([N+](=O)[O-])cc2)cc1,/,/,1.2,2,/,
CCc1cccc(OCCn2ccnc2)c1,3,-8,0.1,3,-3%,
CCN(CC(=O)NCC(=O)Nc1ccc(Br)cc1C)Cc1ccccc1,/,/,-0.1,-4,/,

# Not all compounds are listed, so the mix of outcomes need not match the whole.
